TAR Tat displ: TAR RNA-Tat peptide displacers, HIV-1, primary screen, biochemical, FRET, FAM/TAMRA-labeled Tat. HIV-1 TAR RNA, Tat peptide displacement FRET; stronger effect = higher value. z-score (test concentration not listed). 100,000 compounds, 0.6% hits;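 note: score is relative to mean and SD of negative controls; some compounds called inactive have numbers as strong as hits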
CDC25B CDK2 inh: primary biochemical HTRF screen for blockers of M-phase inducer phosphatase 2 binding to CDK2/cyclin A. P30305+P24941. HTRF CDC25B-CDK2/CyclinA binding, anti-His/anti-Flag; stronger effect = higher value. z-score (no concentration beside the values). 94,000 compounds, 0.72% hits. AID 1259370, 2018;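 note: score is relative to mean and SD of negative controls; strong numbers were not always called active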
An asterisk follows results filed as active; x = no result given.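 Rule for the calls: active = z-score from 3 up in half or more of its runs; inactive = the rest.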 No enrichment for hits; 0.87% or so of the library scored in one or more.

Compound | CDC25B CDK2 inh | TAR Tat displ
c1ccc(CSc2ccc(-c3ccncc3)nn2)cc1 | x | 1.4
Cc1nc2c3ccccc3n(CC(=O)Nc3ccc4c(c3)OCO4)c(=O)n2n1 | x | 1.1
COC(=O)c1ccc(OC)c(CN2N=NC3C(=O)N(c4ccc(C)c(C)c4)C(=O)C32)c1 (centres undefined) | -0.53 | 0.25
O=C(Nc1ccc(F)cc1)NC(c1ccccc1)c1nnc(-c2ccccc2)o1 (centres undefined) | 0.97 | 1.6
Cc1cc2ccccc2n1-c1ccc(C(=O)N2CCC(C(=O)N3CCCC3)CC2)s1 | x | -0.89
c1ccc2c(Cc3nn[nH]n3)c[nH]c2c1 | -1.1 | 0.8
O=c1c(-c2ccc(Cl)cc2)c(N2CCN(CCOc3ccc(Cl)cc3)CC2)c1=O | x | 0.02
Cc1ccccc1CSc1nc2ncccc2o1 | x | -0.15
O=C(O)c1nccnc1C(=O)Nc1ccc(F)cc1Cl | -1.4 | 1.5
Nc1ccc(-c2nc3c(N)cccc3[nH]2)cc1 | -4.4 | 1.6
Cc1nn(C)c(C)c1S(=O)(=O)N1CCCC(C(=O)N2CCN(c3ccc(Cl)cc3)CC2)C1 (centres undefined) | -0.83 | x
O=C(Nc1ccccc1C(=O)NCc1ccc2c(c1)OCO2)C1=CSCCO1 | x | 2.7
Cc1cc(=O)n2nc(N3CCCC(C(=O)NC(C)(C)C)C3)sc2n1 (centres undefined) | -0.16 | 1.4
O=C(NC1CCCCCC1)C1CCCN1S(=O)(=O)c1cccc2cccnc12 (centres undefined) | 0.38 | x
Cc1c(-c2nc(-c3ccccc3)no2)nnn1-c1cccc(F)c1 | x | 0.66
CCOc1ccc(-c2nn3c(-c4ccccc4)nnc3s2)cc1 | -1.1 | -0.52
O=c1[nH]c(SCc2cccc3nsnc23)nc2ccccc12 | -0.77 | x
Cc1ccn2c(=O)c(C(=O)NC(C)CCc3ccccc3)c(O)nc2c1 (centres undefined) | -1.7 | 1.5
CCOc1ccc(N2C(=O)CC(Sc3nc4c(cc3C#N)CCC4)C2=O)cc1 (centres undefined) | -0.12 | x
COc1cccc(NC(=O)N2CCC3(CC2)Nc2cc(F)ccc2-n2cccc23)c1 | x | 0.4
Cc1cc2c(cc1S(=O)(=O)NCCCOC(C)C)OCC(=O)N2 | x | 2
CCCCOC(=O)COc1ccc2c(CCC)cc(=O)oc2c1 | -0.96 | x
O=C(CSC1=Nc2ccccc2C2=NC(c3ccccc3)C(=O)N12)Nc1cc(F)ccc1F (centres undefined) | x | -0.94
CS(=O)(=O)c1ccc2sc(NC(=O)c3cc4ccccc4o3)nc2c1 | -1.7 | -0.81
COc1ccc(Nc2nnc3c4ccccc4c4ccccc4c3n2)cc1 | 0.99 | x
COc1ccccc1N1CCN(CCCNc2c(C)c(=O)n(C)c(=O)n2C)CC1 | -0.38 | x
CC(=O)Nc1sc2c(c1C(=O)Nc1ccccc1Cl)CCC2 | -1.4 | x
O=C(CSc1nnc2ccc3ccccc3n12)c1ccc2c(c1)OCO2 | -0.4 | x
COc1ccc(N2CC(O)=C(c3nc4ccccc4c(=O)[nH]3)C2=N)cc1OC | -1.5 | -0.02
Cn1c(=O)c2c(nc(NCc3ccco3)n2Cc2ccccc2)n(C)c1=O | 1.4 | x
CCC(C(=O)N1CCC(C(N)=O)CC1)n1nc(C)c2sc3ccccc3c2c1=O (centres undefined) | -1.9 | 1.1
CC1CCCCN1c1nnc(NC(=O)Cn2c(=O)oc3ccccc32)s1 (centres undefined) | -2.3 | -0.07
COc1ccccc1C(=O)c1c(N)c(-c2nc(-c3ccccc3)cs2)c2ccccn12 | -0.05 | 2
O=C(Nc1cc(F)c(Br)cc1F)c1ccco1 | -2.7 | x
CC(Oc1ccc2c3c(c(=O)oc2c1)CCCC3)C(=O)O (centres undefined) | -0.38 | x
CCCCNc1nc2c(c(=O)[nH]c(=O)n2C)n1CCC(C)C | 1.7 | 1.7
CC(Sc1nc(N)c2c3c(sc2n1)CSC(C)(C)C3)C(=O)Nc1ccccc1 (centres undefined) | 0.63 | 1.5
CN1CCN(C(=O)COCc2cc(-c3ccco3)on2)CC1 | x | -0.23
COc1cc(OC)c(NC(=O)N2CC(C)Sc3ccccc32)cc1Cl (centres undefined) | x | 1.3
CCNc1nc(Nc2ccccc2C)c2cnn(C)c2n1 | x | 1.1
CN(C(=O)CSC1=Nc2ccccc2C2=NC(c3ccccc3)C(=O)N12)C1CCCCC1 (centres undefined) | -2.3 | x
O=c1c2c(-c3ccc(Cl)cc3)noc2ncn1Cc1ccc(F)cc1 | x | 1.2
Nc1ccc(Br)cc1C(NCC(=O)O)c1ccccc1 (centres undefined) | x | 0.39
CSc1sc(Cl)c2c1/C(=N\O)CC(C)(C)C2 | -1.1 | x
Cc1nc2nc(-c3ccco3)nn2c(C)c1Cl | -0.49 | 1.9
CCN(CC)c1ccc2nnc(CCC(=O)NC3CCCC3)n2n1 | x | -0.21
CC1=C(C(=O)OC2CCCCC2)C(c2cccc(O)c2)C2=C(CCCC2=O)N1 (centres undefined) | -0.53 | 2.1
CC(=O)N1c2ccc(S(=O)(=O)N3CCOCC3)cc2CC1C(=O)N1CCCCC1 (centres undefined) | x | 1.2
Clc1ccc2c(c1)C1C=CCC1C(c1ccccc1)N2 (centres undefined) | -1.7 | -2.7
CCC(C)NC(=O)N1CCC(C(=O)NCc2csc(C)n2)CC1 (centres undefined) | x | 2.2
O=C(CSc1nc2ncccc2o1)Nc1ccc(F)cc1 | x | 0.32
OCCCNc1ncnc2c1sc1nc(-c3ccccc3)c3c(c12)CCCC3 | -1.6 | -0.63
Clc1cccc(C(NC2CCCC2)c2nnc(-c3ccccc3)o2)c1 (centres undefined) | -1.1 | 1.2
Cc1cc(C(=O)NNC(=O)C(F)(F)F)ccc1[N+](=O)[O-] | -1.6 | x
O=C1C2N=NN(CC(=O)N(c3ccccc3)c3ccccc3)C2C(=O)N1c1ccc(Cl)cc1 (centres undefined) | x | 0.59
O=C(COc1ccc2ccccc2c1)OCC(=O)c1ccccc1 | -1.3 | 1.1
COc1cccc2cc(CC(=O)O)oc12 | x | -3.2
O=c1[nH]c(-c2ccc(F)cc2)nc2c1Cc1ccccc1O2 | -0.86 | -0.78
O=C(CN1C(=O)c2ccccc2S1(=O)=O)Nc1ccc(Br)cc1F | -0.15 | x
COc1ccc(OC)c(NC(=O)C2CCCN2S(=O)(=O)c2ccc3c(c2)CC(C)N3C(C)=O)c1 (centres undefined) | x | 0.42

(listing goes on)
Compound | CDC25B CDK2 inh | TAR Tat displ
CC(C)NC(=O)C(=O)NCC(c1cccs1)S(=O)(=O)c1ccc(Cl)cc1 (centres undefined) | x | 0.64
O=C(COC(=O)c1ccc2nc(-c3ccccc3)c(-c3ccccc3)nc2c1)c1cccc([N+](=O)[O-])c1 | -13 | x
CCC12CN3CC(CC)(CN(C1)C3c1ccccc1)C2=O (centres undefined) | -0.21 | 0.64
C=CCc1ccccc1OCCSc1nc2ccccc2n1CC(=O)OC | 1.4 | 0.9
O=C(CCSCc1cnn(-c2ccccc2)c1-n1cccc1)NC1CCCCC1 | 0.17 | 0.43
Cc1nn(-c2ccccc2)c(-n2cccc2)c1CNC(=O)Nc1ccc(Br)cc1 | x | -1.6
Cc1nn(CCCC(=O)NC2CCCc3ccccc32)c(=O)c2cc3occc3n12 (centres undefined) | -1.8 | 1.6
Cc1ccc([N+](=O)[O-])c(NS(=O)(=O)c2cc(Cl)c(Cl)cc2Cl)c1 | -0.95 | x
CSc1ccc(C2c3c(oc4cc(C)c(C)cc4c3=O)C(=O)N2CCCN(C)C)cc1 (centres undefined) | -0.93 | 0.55
CCC(NC(=O)Nc1cc(OC)cc(OC)c1)c1c(-n2cccc2)sc2c1CCN(C)C2 (centres undefined) | x | 1.2
CCOc1ccc(C2c3c(oc4cc(C)c(C)cc4c3=O)C(=O)N2CCCN(C)C)cc1OC (centres undefined) | -0.76 | -0.02
O=c1[nH]cnc2nc(N3CCSCC3)sc12 | -0.4 | 1.5
Cc1nc(C(F)(F)F)ccc1C(=O)NCCNc1ncccc1C(F)(F)F | -1.1 | x
CC(C)CCC1=NN(C(=O)Cc2ccccc2)C(O)(C(F)(F)F)C1 (centres undefined) | -0.23 | x
CCc1nn2c(-c3ccc(OC)cc3)nnc2c2c1nnn2Cc1ccc(F)cc1 | 0.19 | 1.8
O=C1CCCC2=C1C(c1ccc3c(c1)OCO3)Nc1ccc3ncccc3c12 (centres undefined) | 1 | -0.35
Cc1noc(C)c1S(=O)(=O)Nc1ccc(N2CCN(C(=O)OC(C)(C)C)CC2)nc1 | -0.99 | x
COc1ccc(CNc2nc(NC3CCCC3)nc3c2cnn3C)cc1 | x | 1.9
CC1(C)CC(=O)c2cc(C(=O)NC3CCSC3=O)c(=O)n(-c3ccccc3)c2C1 (centres undefined) | 0.03 | 0.06
O=S(=O)(Nc1cccc(-c2ccc(N3CCCC3)nn2)c1)c1ccccc1Cl | x | 0.34
N#Cc1nc(/C=C/c2ccc(F)cc2)oc1NCCN1CCOCC1 | -0.44 | 0.63
CSC1=NCCN1S(=O)(=O)c1ccc(C)cc1C | -0.28 | -0.37
N#Cc1c2c(c(N3CCN(C4CCCCC4)CC3)n3c1nc1ccccc13)CCC2 | -3 | x
Cn1cccc1Cc1nnc(SCC(=O)Nc2ccc(F)cc2)n1-c1ccccc1 | 0.69 | -4.3
CCOC(=O)c1sc2nc3n(c(=O)c2c1C)CCCC3C(=O)OCC (centres undefined) | -0.23 | 1.2
Cc1cc(C)n(-c2ncc(-c3ccccc3)nn2)n1 | 1.1 | 1.5
CCSc1nc2n(n1)C(c1ccccc1C)C1=C(CCCC1=O)N2 (centres undefined) | 1.2 | 1
Cn1cnc(S(=O)(=O)NCc2csc3ccc(Cl)cc23)c1 | -1.3 | x
Cc1nnsc1C(=O)Nc1c(C(=O)c2ccccc2)oc2ccccc12 | -1.5 | -0.42
Cc1nc(-c2cc(S(=O)(=O)N3CCN(C(=O)c4ccco4)CC3)c(C)s2)no1 | x | -0.64
COc1ccc(C(=O)Nc2cnc3sc4cc(F)ccc4n3c2=O)cc1 | 1.1 | -0.04
Cc1oc(-c2ccc(OC(C)C)cc2)nc1CN1N=NC2C(=O)N(c3ccc(F)cc3)C(=O)C21 (centres undefined) | x | -0.08
O=C(Nc1ccc(F)cc1)C1=C(NCc2ccco2)c2ccccc2S1(=O)=O | x | -0.12
Cc1cc(NC(=O)CCS(=O)(=O)c2ccc3c(c2)CCN3C(=O)C2CC2)ccc1Br | x | 0.68
COc1ccccc1-c1noc2ncnc(N(C)Cc3ccco3)c12 | x | 2.4
CCC(C)NC(=O)CCCn1c(=O)c2cccn2c2cccnc21 (centres undefined) | x | 0.71
Cc1cc(C(=O)Nc2ccccc2)no1 | -0.91 | x
O=C(O)c1ccccc1Nc1cc(N2CCCC2)c2noc3c2c1C(=O)c1ccccc1-3 | 2.4 | 7.5*
Cc1nc(N2CCN(C)CC2)ncc1C(=O)NCCC(C)C | x | 1.3
Cn1c(=O)c(=O)n(C)c2cc(S(=O)(=O)CCC(=O)Nc3ccc(Cl)cc3)ccc21 | 0.84 | x
CCN(CC)c1nc2c(S(=O)(=O)c3ccc(C)c(C)c3)nnn2c2ccsc12 | x | -0.02
Cc1cc2nc(-c3cc(NC(=S)NC(=O)c4ccccc4Cl)ccc3O)oc2cc1C | -2.8 | x
COCCCNC(=O)c1c(NC(=O)c2snnc2C)sc2c1CCCC2 | -0.05 | 1.5
O=c1c(NCc2cccs2)nccn1-c1ccc(Cl)cc1 | x | -1.9
NS(=O)(=O)c1cccc(NC(=O)Nc2ccccc2F)c1 | -2.8 | x

Grouped by structure: the compounds so far containing an aryl thioether with sulfur outside any ring (12)
Compound | CDC25B CDK2 inh | TAR Tat displ
c1ccc(CSc2ccc(-c3ccncc3)nn2)cc1 | x | 1.4
Cc1ccccc1CSc1nc2ncccc2o1 | x | -0.15
O=c1[nH]c(SCc2cccc3nsnc23)nc2ccccc12 | -0.77 | x
CCOc1ccc(N2C(=O)CC(Sc3nc4c(cc3C#N)CCC4)C2=O)cc1 (centres undefined) | -0.12 | x
O=C(CSc1nnc2ccc3ccccc3n12)c1ccc2c(c1)OCO2 | -0.4 | x
CC(Sc1nc(N)c2c3c(sc2n1)CSC(C)(C)C3)C(=O)Nc1ccccc1 (centres undefined) | 0.63 | 1.5
CSc1sc(Cl)c2c1/C(=N\O)CC(C)(C)C2 | -1.1 | x
O=C(CSc1nc2ncccc2o1)Nc1ccc(F)cc1 | x | 0.32
C=CCc1ccccc1OCCSc1nc2ccccc2n1CC(=O)OC | 1.4 | 0.9
CSc1ccc(C2c3c(oc4cc(C)c(C)cc4c3=O)C(=O)N2CCCN(C)C)cc1 (centres undefined) | -0.93 | 0.55
Cn1cccc1Cc1nnc(SCC(=O)Nc2ccc(F)cc2)n1-c1ccccc1 | 0.69 | -4.3
CCSc1nc2n(n1)C(c1ccccc1C)C1=C(CCCC1=O)N2 (centres undefined) | 1.2 | 1

Assay outcomes from PubChem BioAssay.
